# From PubChem
# hNpr1 antagonist = Natriuretic polypeptide receptor (hNpr1) antagonism - Primary qHTS | Atrial natriuretic peptide receptor 1 (Homo sapiens), P16066 | 76,000 tested, 1.6% active | Potency, µM (highest dose often 46.3 µM), for inactives: at the highest dose activity change, negative = inhibition, usual class: inhibitors | HEK293 hNpr1 GloSensor cGMP, ANP-stimulated luminescence; active = well fitted inhibition curve with a large enough effect; inconclusive = small, poorly fitted or top-dose-only effect; inactive = no such curve, though single readings can be large or run the other way;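 also: nearly all actives have a fitted effect of over 60% in size; nearly all hits also lower the signal before the agonist is added; a reference antagonist and vehicle were the controls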
# Target sequence (P16066 whole entry, looked up): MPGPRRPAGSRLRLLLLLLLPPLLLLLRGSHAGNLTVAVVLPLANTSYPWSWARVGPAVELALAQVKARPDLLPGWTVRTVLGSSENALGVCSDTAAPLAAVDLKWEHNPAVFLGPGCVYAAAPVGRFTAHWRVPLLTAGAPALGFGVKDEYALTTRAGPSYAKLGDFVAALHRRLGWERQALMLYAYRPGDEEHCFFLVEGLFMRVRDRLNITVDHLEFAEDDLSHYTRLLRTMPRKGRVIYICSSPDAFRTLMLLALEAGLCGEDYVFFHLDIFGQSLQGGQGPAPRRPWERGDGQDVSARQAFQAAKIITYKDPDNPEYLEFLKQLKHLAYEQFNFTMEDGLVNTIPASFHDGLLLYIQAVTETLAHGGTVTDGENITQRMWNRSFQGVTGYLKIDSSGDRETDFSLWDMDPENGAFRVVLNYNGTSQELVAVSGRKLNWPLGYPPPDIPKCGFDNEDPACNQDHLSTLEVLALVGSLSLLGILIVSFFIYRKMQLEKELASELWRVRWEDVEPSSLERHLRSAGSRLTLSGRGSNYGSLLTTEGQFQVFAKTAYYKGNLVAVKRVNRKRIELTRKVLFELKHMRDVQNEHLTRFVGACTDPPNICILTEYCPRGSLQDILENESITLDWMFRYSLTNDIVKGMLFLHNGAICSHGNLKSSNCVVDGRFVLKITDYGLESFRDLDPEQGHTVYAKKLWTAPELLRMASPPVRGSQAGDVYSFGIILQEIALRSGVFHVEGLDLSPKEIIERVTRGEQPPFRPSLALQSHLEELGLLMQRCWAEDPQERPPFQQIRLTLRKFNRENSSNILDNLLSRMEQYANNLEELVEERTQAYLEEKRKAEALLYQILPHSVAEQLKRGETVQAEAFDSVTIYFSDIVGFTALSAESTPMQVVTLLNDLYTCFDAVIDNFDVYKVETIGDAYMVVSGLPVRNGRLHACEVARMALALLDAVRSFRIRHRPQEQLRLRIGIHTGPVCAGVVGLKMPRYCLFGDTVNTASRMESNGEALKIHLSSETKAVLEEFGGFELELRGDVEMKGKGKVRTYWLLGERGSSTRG
#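 Compound pre-incubated 30 min at room temperature on GloSensor-loaded HEK293 cells stably carrying hNpr1 and the pGS-40F cGMP biosensor. Stimulation uses hNppA at 0.1 nM final; luminescence is taken at baseline and 20 min post-agonist.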
# * hit, by the source's call; u = inconclusive; [ ] = remark or other dose. % is scaled to controls: 0 for no effect and ±100 for the full control effect; potency is read from the fitted curve at half-maximal effect. A portion of the library (hit frequency here may not be typical).
hNpr1 antagonist,structure
1%,COc1ccc(C(C(=O)O)N2CCN(c3ccc(F)cc3)CC2)c(OC)n1 (configuration not stated)
0%,COc1ccc(CCc2nc(-c3nnn4c3COC(c3ccc(Cl)cc3)C4)no2)cc1 (configuration not stated)
-2%,CCCc1cc(C(=O)N2CCC3(CC2)CC(=O)N(CCCOC)C3)n(C)n1
2%,Nc1nc2c(s1)CN(C(=O)C1CCC(=O)N(C3CCCC3)C1)CC2 (configuration not stated)
0%,NC1CCN(Cc2ccc(-c3nc(CCn4cccn4)cc(=O)[nH]3)cc2)CC1
13µM*,Clc1ccc2nc(N3CCC(NCCc4cccnc4)CC3)sc2c1
-2%[70.6 µM],CC(=O)Nc1ccc(CN2CCOC[C@H]2c2ncc(-c3cccc(Cl)c3)[nH]2)cc1
-3%,O=C(c1cccc(F)c1)N1CCCC(n2cc(-c3nc(C4CC4)no3)nn2)C1 (configuration not stated)
3%[70.6 µM],Cc1ccc(C(=O)NC[C@H]2O[C@@H](CC(=O)N3CCOCC3)[C@H](O)[C@@H]2O)cc1
2%[70.6 µM],COc1ncccc1Nc1ncc(-c2ccccc2)c2c1OCC2
1%,COc1ccc(CCC(=O)NC2CCN(C(=O)N3CC4CC(C3)[C@H]3CCCC(=O)N3C4)CC2)cc1 (some centres not stated)
11µM*,N#Cc1cccc(CN2CCc3nc(C(=O)Nc4cccc(C(F)(F)F)c4)oc3CC2)c1
1%[70.6 µM],O=[S+]([O-])(c1ccccc1)N1CC2(COCCN(CC3CC3)C2)C1
-12%[70.6 µM],COc1ncccc1-c1ncc2c(n1)OCCN(Cc1ccccc1)C2=O
0%[70.6 µM],O=C(c1ccc2cncn2c1)N1CCOCC1
1%,COc1cc2c(-c3ccccc3)c(C)oc2cc1CN1CCC2(CC1)C(=O)N(C(C)C)C(=O)N2C
-17%,COc1ccc(C)cc1NC(=O)c1ccc2c(c1)C(O)CCCCCN2C (configuration not stated)
-13%,COc1ccc(CN2Cc3cc(NC(=O)Cc4ccc(F)cc4)ccc3OC(C)C2=O)cc1 (configuration not stated)
-25%,Cc1cc(C(=O)N2CCC(CCOc3ccc(F)cc3)C2)c(C)n1Cc1ccc(F)cc1 (configuration not stated)
-4%,CCNc1ncnc2sc3c(c12)CCN(Cc1ccncc1)C3
-2%,COCCN1C(=O)CS(=O)C12CCN(C(=O)Nc1ccccc1F)CC2 (configuration not stated)
-12%,COc1ccc(NC(=O)C2CCN(C(=O)c3nnn4c3COC(c3ccc(C)cc3)C4)CC2)cc1 (configuration not stated)
-13%[70.6 µM],COCCN1C(=O)[C@@H]2C[C@@H](CN2Cc2ccc(Cl)cc2)Oc2ccccc21
2%[70.6 µM],CC[C@H]1CN(C(=O)Nc2ccccc2)CC[C@H]1CC(=O)NCc1ccccc1
1%,Cc1oc(-c2ccccc2NC(=O)C2CCC2)nc1CNC(=O)Cc1cc(F)cc(F)c1
-11%,O=C(c1ccccc1)N1CCCC2(C1)Nc1cccnc1NC2=NC1CCCC1 (configuration not stated)
4%,CC(=O)NCC12CCCC=C1N(C)C(=O)CC2 (configuration not stated)
4%,O=C(C1Cn2cccc2C(=O)N1Cc1cccnc1)N1CCN(c2ncccn2)CC1 (configuration not stated)
5%,Cc1nncn1C1CCN(S(=O)(=O)c2cccs2)CC1
-3%,O=C(C1CCN(C(=O)N2CC3CC(C2)[C@H]2CCCC(=O)N2C3)CC1)N1CCN(c2ccccn2)CC1 (some centres not stated)
-4%,Cc1cccc(CNC(=O)C2c3ccccc3CC(=O)N2C(C)C)c1 (configuration not stated)
-14%,COC(=O)C1=C(C)N=C2SC=C(CC(=O)Nc3cc(C)cc(C)c3)N2C1c1ccccc1OC (configuration not stated)
-16%,COc1ccc(C2Cn3cnc(C(=O)N4CCC(C(=O)Nc5ccccc5)CC4)c3CO2)cc1 (configuration not stated)
u,O=S(=O)(Cc1ccccc1)N1CCC(Oc2ccc(-c3noc(C4CC4)n3)cc2)C1 (configuration not stated)
6%,O=C(NCCc1noc(-c2cccnc2)n1)NCc1ccccc1
14%,C[C@@]1(O)CCN(Cc2cnc(NCC(=O)O)nc2)C[C@@H]1O
4%,CSCCC(=O)N1CCCC1C(=O)Nc1ccccc1Oc1cccnc1 (configuration not stated)
-2%,O=C(C1CC(=O)N(c2n[nH]c3cc(Br)ccc23)C1)N1CCSCC1 (configuration not stated)
5%,Cc1ccc(C2Cn3nnc(C(=O)N4CCC(C(=O)NC(C)c5ccc(F)cc5)CC4)c3CO2)cc1 (configuration not stated)
0%[70.6 µM],O=C(COc1ccccc1)N1CCN2C(=O)N(Cc3ccccc3)C(=O)[C@H]2C1
-2%,CCc1nnc([C@@H]2CC(F)(F)CN2C(=O)CCn2cc(C)cn2)o1
2%,COc1ccc([C@@H](NC(=O)c2ccc3nccn3c2)C2CC(O)C2)cn1 (some centres not stated)
-22%,Cc1ccc(N2CCC(NC(=O)c3ccc(C#N)cc3)C2=O)cc1C (configuration not stated)
-9%,CCCN(Cc1ccc(F)cc1)C(=O)c1cnc(-c2ccc(C)cc2)[nH]c1=O
0%,Cc1cccc(CNC(=O)C(C)C2CCOCC2)c1 (configuration not stated)
0%[70.6 µM],Cn1ccnc1CN1C(=O)CO[C@H]2CN(C(=O)c3ccccn3)C[C@H]21
2%,COC(=O)CNC(=O)N1CCCCC1c1nc(CCOc2cccc(C)c2)no1 (configuration not stated)
-1%,CC(=O)c1cc(CN2CCCCC(N)C2)cs1 (configuration not stated)
1%,Cc1ccccc1OCC1CN(Cc2c[nH]c3ccccc23)C(=O)c2c(ccnc2-c2ccc(OCC(=O)O)cc2)O1 (configuration not stated)
u,CCOC(=O)C1=C(C)N=C2SC=C(CC(=O)NCCOC)N2C1c1cccc([N+](=O)[O-])c1 (configuration not stated)

# (further entries)
hNpr1 antagonist,structure
-3%[70.6 µM],CC(C)C(=O)N1CCc2c(n(Cc3ccccc3)n(-c3ccccc3)c2=O)C1
-1%,CC(=O)Nc1cccc(C(=O)N2CCCC(n3cc(-c4nc(C5CC5)no4)nn3)C2)c1 (configuration not stated)
0%,CC(=O)Nc1ccc(NC(=O)CCNc2c(-c3ccc(F)cc3)nc3cnccn23)cc1
2%,CO[C@@H]1COCC[C@H]1NC1CCN(c2ncc3ccc(F)cc3n2)CC1
0%,O=C(NC[C@H]1O[C@@H]2C[C@@H](CC(=O)N3CCC(F)(F)C3)O[C@@H]2[C@@H]1O)Nc1cccc(Cl)c1
-2%[70.6 µM],CNC(=O)C1(N2CCC[C@H]2C(=O)N2CCC(C)CC2)CCCCC1
-17%,Cc1noc(-c2cccs2)c1C(=O)NC1CCc2ccccc21 (configuration not stated)
6%,Cc1nc([C@H]2CCN(Cc3ccoc3)C[C@H]2NC(=O)C2CC2)n[nH]1
-27%[70.6 µM],COc1ccc(C(=O)N2C[C@@H](F)[C@@H](OCc3nc4ccc(F)cc4[nH]3)C2)cc1
7%,COCCN1C[C@H]2CN(C(=O)C3CCC3)C[C@@]2(C(=O)O)C1
4%,Cc1cccc(C(=O)N2CCC(Oc3ccccc3F)(C(=O)O)CC2)c1
0%,COc1ccc(S(=O)(=O)N2CCC3(CCCNC3)C2)c(OC)c1 (configuration not stated)
3%[70.6 µM],Fc1ccc(-c2cnc([C@@H]3COCCN3C3CCC3)[nH]2)cc1
-5%,O=C(Cc1c[nH]c2ccccc12)N1CCc2c(nc(-c3ccc(F)cc3)[nH]c2=O)C1
2%,O=C(c1cccs1)N1CCC(N2CC(OCC3CC3)C23CCCCC3)CC1 (configuration not stated)
2%,CC(C)CCC(=O)NC1CCN(c2cnn(C)c(=O)c2)CC1
-12%,COc1cccc(CNC(=O)C2CCCN(c3cnn(Cc4ccccc4)c(=O)c3)C2)c1 (configuration not stated)
13%,O=c1[nH]nc2n1CCC(NS(=O)(=O)Cc1cccc(F)c1)CC2 (configuration not stated)
9%,COc1cccc([C@@H]2CN(C(=O)CCCC(=O)O)C[C@H]2C(=O)O)c1
7%,CC(C)N1C[C@H](O)C[C@H]1c1nnc2n1CCN(C(=O)CC1CCCCC1)C2
4%,COc1ccc(NC(=O)O[C@@H]2CO[C@H]3[C@@H]2OC[C@@H]3NC(=O)Nc2ccc(C(C)=O)cc2)cc1
3%[70.6 µM],Cc1ccc2c(c1)N1C(=O)OC[C@@H]1CCN(C(=O)c1ccc(C#N)cc1)C2
8%,Cc1ccc(CN(C)CC(=O)N2CC[C@@](C)(O)[C@@H](O)C2)cc1
2%,CN(C(=O)c1ccc2ccccc2n1)C1CCc2nn(CC3CC3)c(=O)n2CC1 (configuration not stated)
7.9µM*,O=C(Nc1ccc(Cl)cc1)c1nc2c(o1)CCN(Cc1cccc(F)c1)CC2
-11%,Cc1nc(-c2ccccc2)n(Cc2ccc(F)cc2F)c(=O)c1CCO
-3%[70.6 µM],CC(=O)NCCNC[C@@H]1C=C(C)[C@H](Cc2nnc(-c3cncn3C)o2)C[C@H]1C(C)C
1%,COc1ccc(NC(=O)N2CCC(N3CC4CC(C3)[C@H]3CCCC(=O)N3C4)CC2)cc1OC (some centres not stated)
2%,NC(=O)c1cnc2n1CCN(C(=O)CCNC(=O)c1ccc(F)cc1)C2
7%,O=C(C1CC1)N1CCC2(CC1)C(=O)NCN2Cc1ccc(Cl)cc1
-3%,CCNC(=O)C1C(c2ccc(NC(=O)c3cccc(Cl)c3)cc2)OC(=O)N1Cc1ccc(C)cc1 (configuration not stated)
1%,CN1C(=O)CC(C(=O)O)C12CCN(Cc1ccc3c(c1)OCCO3)CC2 (configuration not stated)
1%[70.6 µM],CNC(=O)C(C)(C)N1CCC[C@H]1C(=O)NC1CCCCC1
2%,O=C(Cn1nc2c(cc1=O)CCCC2)Nc1cccc(-c2ncn[nH]2)c1
6%,CC(C)Cc1noc(CN(C)C(=O)c2cc(C(C)C)n3ncnc3n2)n1
1%,O=C1CC2(CCN(S(=O)(=O)c3cccs3)CC2)Oc2cc(Cl)ccc21
-2%[70.6 µM],CC(=O)Nc1ccc(CNC2(Cc3cc(CN(C)C)on3)COC2)cc1
-1%,COc1cc2c(cc1CN1CCCC(O)(CN(C)C)C1)OCCCO2 (configuration not stated)
-11%,COC[C@@H]1CN(C(=O)Cc2cccc(OC)c2)C[C@H]1c1ccccn1
-1%[70.6 µM],CN(C)[C@@H]1C[C@H](Cn2cc(C3CC3)nn2)[C@@H](O)[C@H]1O

# No new results follow: an excerpt of the list.
hNpr1 antagonist,structure
-3%,CCNC(=O)C1C(c2ccc(NC(=O)c3cccc(Cl)c3)cc2)OC(=O)N1Cc1ccc(C)cc1 (configuration not stated)
1%,CN1C(=O)CC(C(=O)O)C12CCN(Cc1ccc3c(c1)OCCO3)CC2 (configuration not stated)
1%[70.6 µM],CNC(=O)C(C)(C)N1CCC[C@H]1C(=O)NC1CCCCC1

# Pulled one by one from the list above:
hNpr1 antagonist,structure
1%,CN1C(=O)CC(C(=O)O)C12CCN(Cc1ccc3c(c1)OCCO3)CC2 (configuration not stated)
-3%,CCNC(=O)C1C(c2ccc(NC(=O)c3cccc(Cl)c3)cc2)OC(=O)N1Cc1ccc(C)cc1 (configuration not stated)
1%,O=C1CC2(CCN(S(=O)(=O)c3cccs3)CC2)Oc2cc(Cl)ccc21
1%[70.6 µM],CNC(=O)C(C)(C)N1CCC[C@H]1C(=O)NC1CCCCC1
2%,O=C(Cn1nc2c(cc1=O)CCCC2)Nc1cccc(-c2ncn[nH]2)c1
-2%[70.6 µM],CC(=O)Nc1ccc(CNC2(Cc3cc(CN(C)C)on3)COC2)cc1
-1%[70.6 µM],CN(C)[C@@H]1C[C@H](Cn2cc(C3CC3)nn2)[C@@H](O)[C@H]1O

# Later entries.
hNpr1 antagonist,structure
-2%[70.6 µM],O=C1NCCCN1C1CCN(Cc2ccccn2)CC1
-3%,COc1ccc2[nH]c(C(=O)N[C@@H]3CN(S(C)(=O)=O)C[C@H]3CN(C)C)cc2c1
4%,COc1ccc(C(=O)N2[C@@H]3CC[C@H]2CC(NC(=O)c2ccncc2)C3)cc1F (some centres not stated)
1%,Cc1c(C(=O)NC[C@H]2C[C@@H]3C=C[C@H]2C3)sc2ncnc(NCCc3ccccn3)c12
3%,O=C(CCc1ccccc1)Nc1ccc(-c2nnc3n2CCCC3)cc1
9%,COCc1nncn1C1CCN(S(=O)(=O)c2cccc(C)c2)CC1
2%[70.6 µM],CC(C)C(=O)NC[C@H]1O[C@H](Cc2cc(CN3CCCCC3)on2)CC[C@@H]1O
-3%,O=C1CCN(Cc2cccnc2)CCCC(C(=O)NCc2cc(F)cc(F)c2)CCN1 (configuration not stated)
-2%,Cc1noc(C)c1S(=O)(=O)N1CCC(Cc2nc(-c3cccnc3)n[nH]2)C1 (configuration not stated)
-1%,CC(C)COc1cc(=O)n2c(c1C(=O)N1CCN(c3ccccn3)CC1)CCCCC2
2%,CCCCSCc1cc(C(=O)N2CCC3(CCCN(C)C3=O)C2)oc1C (configuration not stated)
2%,CN(C)[C@@H]1CN(Cc2ccccn2)CC[C@]1(O)c1ccccc1
3%,COCCn1nc2n(c1=O)CCN(Cc1ccc(Br)o1)CC2
14µM*,O=C1COc2ccc(NCc3cccs3)nc2CN1CCOc1ccccc1
3%,O=C(O)C[C@@H]1CCN(C(=O)COc2ccccc2)C[C@@H]1CCN1CCN(c2ccccc2)CC1
